# Assay outcomes from PubChem BioAssay.
# Sa helicase inh – blocks Staphylococcus aureus DNA helicase; purified S. aureus helicase, fluorescence unwinding assay; about half of the hits fall short of the stated cut; inhibition, %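 (tested at about 80 µM)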; 120,000 tested, 0.05% active;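 active = both duplicates at 50% or more, or one of them with a favoured structure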;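 also: 0% = mean of negative control wells and 100% = mean of positive control wells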
# MgrA DNA FP – S. aureus MgrA-DNA binding modulation | fluorescence polarization | inhibition, %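 (about 10 µg/mL by stock and volumes)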 | 84,000 tested, 0.13% active | AID 602314;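 active = above 50% in either of two replicates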;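 also: 0% = protein plus DNA without compound and 100% = DNA alone without protein; higher means less MgrA bound to DNA so lower polarization; one replicate is shown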
# An asterisk follows results filed as active; x = no result given; & = joins results of further samples. Only part of the results is shown; rates above refer to the full screens.
SMILES,Sa helicase inh,MgrA DNA FP
COc1ccc(C2=NN(CN3C(=O)C(=O)c4ccccc43)C(c3ccc(OC)cc3)C2)cc1 (stereo not drawn),x,-1.1
CCOc1ccc2nc3c(=O)[nH]c(=O)[nH]c3nc2c1,-70.0,42.6
O=C1CC2NCCc3cccc1c32 (stereo not drawn),1.0,x
c1ccc(-c2c(-c3ccccc3)n(Cc3ccco3)c3ncn4nc(-c5ccccn5)nc4c23)cc1,21.0,x
Cc1ccc(NC(=O)c2cc3cc(OC(F)(F)F)ccc3[nH]2)cc1,x,-2.4
NC(CSCc1ccccc1Cl)C(=O)O (stereo not drawn),3.0,-2.9
O=C(Cc1nc2ccccc2[nH]c1=O)c1ccc(Cl)cc1,-4.0,x
Clc1ccc(-c2cc3c(nn2)Nc2ccccc2N3)cc1,7.0,1.0
C=CCn1c(-c2ccccc2)nn(CCC#N)c1=S,-2.0,-2.8
CN(C)c1ccc(C=Nc2cc(Br)c3c(c2)OCCO3)cc1,-6.0,3.5
COc1ccc(C23CC4CC(CC(O)(C4)C2)C3)cc1,x,-2.5
CC(C)Cc1cc(C(=O)NC2CCCCC2)no1,4.0,1.5
O=C1CN(Cc2nc3cc(Cl)ccc3c(=O)[nH]2)CCN1,-28.0,x
O=C(NCc1ccccc1)C1CCC1,-2.0,-1.6
CCOC(=O)N1CCC(NC(=O)C(CC(C)C)NC(=O)C2CCC(C)CC2)CC1 (stereo not drawn),16.0,x
NNc1nc(-c2ccccc2)c2cc(Cl)ccc2n1,8.0,-1.9
CCCNS(=O)(=O)c1ccc2c(c1)OCC(=O)N2,-5.0,-0.2
O=c1c2ccccc2nnn1CSc1nnc(Cc2cccs2)n1C1CCCCC1,-15.0,x
CCOC(=O)c1ccc(NC(=O)CSc2nccn2-c2ccccc2)cc1,17.0,x
COc1cc(/C=N/NC(=O)Cc2csc(C)n2)cc(OC)c1,2.0,x
COc1ccc(C2CC(=O)C3=C(C2)NC(C)=C(C(=O)OC2CCCC2)C3c2ccc3c(c2)OCO3)cc1 (stereo not drawn),x,-10.4
Cn1c2ccccc2c2nnc(SCc3ccccc3)nc21,-16.0,x
O=C(/C=C/c1ccccc1)N1CCN(c2ncccn2)CC1,8.0,x
CCOC(=O)CC1NCCc2c1[nH]c1ccc(OC)cc21 (stereo not drawn),x,0.0
COc1ccccc1CC(=O)n1cccn1,6.0,-2.0
CN(C)C(=O)CN1CCN(C(=O)Nc2ccc(Cl)c(Cl)c2)CC1,-15.0,x
CC(=O)Nc1cccc(OC(C)C)c1,x,-0.2
Nc1ccccc1Sc1ccccc1[N+](=O)[O-],x,-1.3
CN1C(=O)C(O)(C2COC(C)(C)CC2=O)c2cc(Br)ccc21 (stereo not drawn),1.0,-2.1
CCCCC/C=C\C=C\[C@H](O)CCCCCCCC(=O)O,x,-1.7
O=C1CCCCC1Sc1nnc(Cc2cccs2)n1CCc1ccccc1 (stereo not drawn),-10.0,x
COC(=O)c1ccc(COC(=O)c2cc(OC)c(OC)cc2NC(=O)c2ccco2)cc1,7.0,x
O=C(Nc1cccc2c1CCCC2)c1cc(C2CC2)[nH]n1,-33.0,x
O=C(NC(C(=O)c1ccccc1)N1CCCCC1)c1ccccc1 (stereo not drawn),11.0,-0.8
CC(C)N=C(N)/N=C(\N)Nc1ccc(Cl)cc1,x,0.4
Cc1ccc2c(CC(=O)Nc3ccccc3)coc2c1,-3.0,x
NC(=O)C1CCN(Cc2cc(=O)oc3cc4c(cc23)CCC4)CC1,-15.0,x
O=c1[nH]cnc2cc(Cl)ccc12,x,-2.6&5.0
O=S(=O)(/C=C/c1ccccc1)Nc1ccc2cn[nH]c2c1,-7.0,x
O=C(Nc1ccccc1)C1CCN(C(=O)c2cccc(-n3cccc3)c2)CC1,14.0,x
O=c1c2ccccc2[nH]c(=S)n1CCS,-15.0,x
CC(=O)NCc1ccc(C(=O)CSc2ncnc3sc(C)c(C)c23)o1,7.0,x
CCOc1ccc(C(=O)OC(C)C(=O)NC2CC2)cc1OCC (stereo not drawn),-1.0,x
Cc1cc(C(F)(F)F)[nH]c(=O)c1C#N,5.0,-3.6
CCOC(=O)CSc1ncnc2sc3c(c12)CCCC3,x,0.5
COC(=O)c1noc(C)c1C(=O)/C=C/N1CCCCC1,x,-2.9
CC(=O)Oc1ccc(Br)cc1/C=C1\N=C(c2cc([N+](=O)[O-])ccc2Cl)OC1=O,x,-0.5
CC(C)Cc1ccc(C(=O)CC2OC(=O)c3ccccc32)cc1 (stereo not drawn),x,0.4
COc1ccc(-n2c(=O)c3ccccc3n(CC(=O)OCc3ccccc3)c2=O)cc1OC,7.0,x
Cc1[nH]c(=O)[nH]c(=O)c1/C=N/NC(=S)NCc1ccc(OC(C)C)cc1,-3.0,6.1
O=C(CSc1nccc(=O)[nH]1)N1N=C2/C(=C/c3ccco3)CCCC2C1c1ccco1 (stereo not drawn),-6.0,x
CCCn1c(=O)n(C)c(=O)c2c(SC(C(=O)NC(=O)NC)c3ccccc3)nc(CC(C)C)nc21 (stereo not drawn),12.0,x
O=C(CNC(=O)C1CCCCC1)NC1CCCCC1,-14.0,-1.2
O=C(O)/C=C/C(=O)c1ccccc1,5.0,-3.7
O=c1oc2ccccc2cc1-c1csc(CCCCc2nc(-c3cc4ccccc4oc3=O)cs2)n1,x,-0.4
O=C(Nc1nc(SCc2ccc(Cl)cc2)n[nH]1)C1=NN(C2CCS(=O)(=O)C2)C(=O)CC1 (stereo not drawn),16.0,x
Cc1ccccc1Cn1cc(NC(=O)c2cc(CC(C)C)on2)cn1,-28.0,x
CCOC(=O)c1sc(N)c(C#N)c1COC(=O)CCCN1C(=O)c2ccccc2C1=O,-113.0,x
CC(C)(C)NC(=S)NCC1CC1,x,4.0
CC1CCCCN1C(C(=O)O)c1ccccc1 (stereo not drawn),-5.0,-8.6

# 4 consecutive entries from above:
SMILES,Sa helicase inh,MgrA DNA FP
Cc1ccc2c(CC(=O)Nc3ccccc3)coc2c1,-3.0,x
NC(=O)C1CCN(Cc2cc(=O)oc3cc4c(cc23)CCC4)CC1,-15.0,x
O=c1[nH]cnc2cc(Cl)ccc12,x,-2.6&5.0
O=S(=O)(/C=C/c1ccccc1)Nc1ccc2cn[nH]c2c1,-7.0,x

# (more compounds)
SMILES,Sa helicase inh,MgrA DNA FP
Cc1cc(Br)ccc1NC(=O)C(C)Oc1ccc(I)cc1 (stereo not drawn),x,-1.1
O=C(C(c1ccccc1)N1Cc2ccccc2C1=O)N1CCc2ccccc21 (stereo not drawn),-19.0,x
O=C1OC(c2ccccc2)=N/C1=C\c1ccc(N2CCOCC2)cc1,-287.0,x
CC(C)(C)c1csc(-c2cc3nccc(-c4cccc(C(F)(F)F)c4)n3n2)n1,x,-0.3
Cc1ccc(CC2C(=O)N(c3nc(C)cc(C)n3)C(=O)C2C)cc1 (stereo not drawn),10.0,-0.7
CCN(CC)c1c2c(nc3nncn13)CCC2,-1.0,-5.0
Cc1cc(-c2ccccc2)nc(SCC(=O)N2CCCC2)n1,19.0,x
Cc1cc(N2CCOCC2)nc2ccc(NC(=O)CCC(=O)NC3CCCCC3)cc12,14.0,x
O=C(NCCC1=CCCCC1)C1CCCN(c2cnccn2)C1 (stereo not drawn),-5.0,x
Cc1ccccc1C(=O)NN1C(=O)c2ccccc2C1=O,0.0,-0.5
CCOc1ccccc1NC(=O)CN1C(=S)NC(C)(C)CC1C (stereo not drawn),-33.0,x
O=C(N/N=C/c1cn(-c2ccccc2)nc1-c1ccccc1)c1ccco1,-2.0,-2.6
Cc1oc(CSCc2cc(C(=O)O)c(C)o2)cc1C(=O)O,7.0,x
C/C(=C\c1ccccc1)CN(C)C1CCN(C)CC1,2.0,-1.0
S=C(N/N=C/c1cccnc1)NC1CCCCC1,-4.0,x

# 3 entries from above, ordered by molar mass, smallest number first.
SMILES,Sa helicase inh,MgrA DNA FP
Cc1ccccc1C(=O)NN1C(=O)c2ccccc2C1=O,0.0,-0.5
CC(C)(C)c1csc(-c2cc3nccc(-c4cccc(C(F)(F)F)c4)n3n2)n1,x,-0.3
Cc1cc(Br)ccc1NC(=O)C(C)Oc1ccc(I)cc1 (stereo not drawn),x,-1.1

# (list continues)
SMILES,Sa helicase inh,MgrA DNA FP
NC(=O)NC(Cc1ccccc1)C(=O)N1CCN(S(=O)(=O)c2ccc(Cl)cc2)CC1 (stereo not drawn),-7.0,x
CCC1(C)Cc2ccccc2-c2nc3n(c(=O)c21)CC(C(=O)O)S3 (stereo not drawn),26.0,x
CC12CC=C3c4ccc(O)cc4CCC3C1CCC2O (stereo not drawn),6.0,x
CC(=O)Nc1ccccc1OCC(=O)NC(=O)Nc1ccc(C)cc1C,8.0,x
Cc1ncc(CO)c2cc(C(N)=O)c(=Nc3ccc(C(N)=O)cc3)oc12,-22.0,x
O=C(CSc1ncn[nH]1)Nc1nc(-c2ccccc2)ns1,7.0,x
N#C/C=C(\Nc1ccc(Br)cc1)c1ccccc1,4.0,-1.4
Cc1cc(C(F)(F)F)c2c(-c3ccccc3)nn(-c3ccccc3)c2n1,13.0,4.2
O=C(NCc1ccco1)NCC(F)(F)F,24.0,-0.1
NNc1cccc2cccnc12,x,-3.5
CCCN1CCC(NCC(C)c2ccccc2)CC1 (stereo not drawn),15.0,-2.8
Cc1nn(-c2ccccc2)c(C)c1/C=C1\CCCC2=C1OC(N)=C(C#N)C2c1c(C)nn(-c2ccccc2)c1C (stereo not drawn),12.0,x
COc1cc(C2C3=C(CC(C)(C)CC3=O)OC3=C2C(=O)CC(C)(C)C3)ccc1OCc1c(F)cccc1Cl,x,0.7
CCCNC(=O)c1c(C)[nH]c(C(=O)OCC)c1C,-16.0,x
CCN1C(=O)c2cccc3c(NC(=O)c4cccc(N5C(=O)CCC5=O)c4)ccc1c23,15.0,x
N#Cc1cc(O)c(-n2nnc3ccccc32)cc1C#N,8.0,5.7
CC(C)CN(CC(C)C)S(=O)(=O)Cc1ccccc1,-17.0,0.2
Cc1ccc(NC(=O)CSc2nnc(N3C(=O)c4ccccc4C3=O)s2)c(C)c1,0.0,4.4
CC1SC(C)C(=O)N(CC(=O)NCc2ccccc2)C1=O (stereo not drawn),21.0,x
Cc1cccc(N2C(=O)C3C(C4=C(O)c5ccccc5C4=O)=NC(c4ccccn4)C3C2=O)c1 (stereo not drawn),-16.0,x
Cc1ccc(OCc2nnc(SCC(=O)c3ccc(F)c(F)c3)n2-c2ccccc2)c2c1CCC2,x,-1.7
O=C(COc1ccc(S(=O)(=O)NCc2ccccc2)cc1Cl)N1CCOCC1,6.0,-1.0
Cc1nc2c(C#N)c(C)[nH]n2c(=O)c1Cc1ccccc1,16.0,x
O=c1c(Cc2ccccc2O)c(O)nc2n1CCCS2,4.0,x
Oc1ccc2ccccc2c1CN1CCc2ccccc2C1,4.0,1.9
Cc1ccc(CN(C)C(=O)c2ccc(C#N)cc2)o1,-11.0,x
O=C(Nc1cccc(-c2cn3ccccc3n2)c1)c1cccc(Cl)c1,-5.0,1.2
Cc1nc2ccccc2c(=O)n1/N=C/c1ccc(N2CCOCC2)cc1,-6.0,x
O=c1oc2cc(O)ccc2cc1S(=O)(=O)c1ccccc1,-15.0,x
Cc1cc(Nc2ccccc2)n(-c2ccccc2C(=O)O)n1,32.0,11.4

# 3 compounds from above, arranged by the value under Sa helicase inh, ascending.
SMILES,Sa helicase inh,MgrA DNA FP
O=C(Nc1cccc2c1CCCC2)c1cc(C2CC2)[nH]n1,-33.0,x
O=C(/C=C/c1ccccc1)N1CCN(c2ncccn2)CC1,8.0,x
Cc1cc(-c2ccccc2)nc(SCC(=O)N2CCCC2)n1,19.0,x

# Remaining list, next part
SMILES,Sa helicase inh,MgrA DNA FP
O=C(Cc1ccccc1)CC1(O)C(=O)Nc2ccccc21 (stereo not drawn),10.0,0.4
COc1ccc(-n2c(N)c(-c3nc4ccccc4n3C)sc2=S)cc1,6.0,0.0
CCOC(=O)c1c(CN2CCOCC2)oc2ccc(OC)cc12,1.0,-2.2
O=C(CN1C(=O)CCC1=O)Nc1ccc(Cl)cc1,9.0,x
N#CCCn1nc(Nc2ccccc2)n(-c2ccccc2)c1=S,22.0,x
CCCc1c(C)nc2c(OC)cccc2c1SCC(=O)O,0.0,-3.5
NCCCc1ccco1,15.0,1.4
Cc1cc2cc(CNS(=O)(=O)c3ccccc3)ccc2[nH]1,6.0,x
O=C(c1cccc(S(=O)(=O)N2CCOCC2)c1)n1nnc2ccccc21,7.0,x
COCC(C)NC(=O)C1CC(=O)N(c2ccccc2)C1 (stereo not drawn),-1.0,-0.2
CN(C)C(=O)C[n+]1ccc(C(N)=O)cc1,24.0,x
COc1ccccc1C(=O)OCC(=O)c1ccccc1F,4.0,0.1
c1ccc(-c2nc3ccccc3nc2N2CCCC2)cc1,1.0,x
COc1ccc(NC(=O)CCCN2C(=O)C3C4C=CC(C4)C3C2=O)c(OC)c1 (stereo not drawn),20.0,x
COC(=O)Nc1ccc(S(=O)(=O)n2cnc3ccccc32)cc1,-12.0,x
CC(=O)N(c1ccc(C)cc1)C1C=CS(=O)(=O)C1 (stereo not drawn),-22.0,x
CCOC(=O)Cn1c(=O)oc2cc(S(=O)(=O)Nc3cc(C)ccc3OC)ccc21,3.0,x
CCOC(=O)C1=C(C)N=c2s/c(=C3\C(=O)N(C(C)=O)c4ccccc43)c(=O)n2C1c1cccc([N+](=O)[O-])c1 (stereo not drawn),x,0.0
CC(=O)Oc1cc2c(C(=O)NCCN3CCOCC3)c(C)oc2c2ccccc12,-10.0,x
CN(C)/C=N/c1c(C#N)cnn1-c1ncnc2sc3c(c12)CCC3,-7.0,1.9
C=CCN(C(=O)CSc1nc2[nH]ncc2c(=O)n1-c1cccc2ccccc12)c1ccccc1,10.0,0.1
CCc1ccc2[nH]c(=O)c(C(c3nnnn3C(C)(C)C)N3CCc4ccccc4C3)cc2c1 (stereo not drawn),0.0,-4.2
COC(=O)CC1=NN(c2ccccc2)C(=O)C1,10.0,-1.6
CCn1c2c(c3cc(F)ccc31)CCCC2=O,3.0,x
